Yeast UUG start: alters start codon recognition fidelity in yeast. AID 602363. actives 0.13% (n = 350,000). activity score, % at 18.7 µM. S. cerevisiae UUG-firefly luciferase reporter, luminescence/redox ratio;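 active = replicate mean at a twofold rise or more, about +100% in these data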;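 note: firefly luciferase made from a UUG start codon reports start codon fidelity; reporter light over untreated wells divided by growth signal over untreated wells; some hits fall short of that in this replicate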
Rce1 inhib: inhibitors of yeast Ras-converting enzyme. calls only. actives 0.27% (n = 290,000). Q03530. yeast membranes, quenched prenylated peptide cleavage fluorescence;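 active = fall in fluorescence gain of 50% or more versus controls, with final raw signal at or below 3038400; inconclusive = same 50% fall but final raw signal above 3038400; inactive = fall in fluorescence gain under 50%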;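 note: plate controls were neutral control wells for no effect and wells lacking membranes for full effect; tested at 10 µM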
Target sequence (Q03530 whole entry, looked up): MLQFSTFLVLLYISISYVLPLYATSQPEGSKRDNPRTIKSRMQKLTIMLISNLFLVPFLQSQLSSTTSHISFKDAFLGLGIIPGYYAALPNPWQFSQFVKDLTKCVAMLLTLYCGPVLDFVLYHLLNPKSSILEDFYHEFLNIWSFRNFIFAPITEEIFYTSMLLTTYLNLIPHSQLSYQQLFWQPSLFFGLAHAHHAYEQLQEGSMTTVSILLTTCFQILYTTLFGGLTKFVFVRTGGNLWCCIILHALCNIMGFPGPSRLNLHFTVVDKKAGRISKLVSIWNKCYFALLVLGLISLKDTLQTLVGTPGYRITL
MT1-MMP act inh: inhibitors of human MT1-MMP activation | AID 651647 | HT1080 RFP-PRO-GFP cells, GFP/RFP ratio fluorescence, overnight; percent of plate control window, DMSO zero | actives 0.061% (n = 360,000) | P50281 | GFP/RFP ratio change, % at 20 µM;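 active = GFP/RFP ratio change of at least 30% with cell ATP level not reduced by more than half and red fluorescence within 50% of control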; note: strong numbers were not always called active
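Assay system: HT1080 RFP-PRO-GFP cells | Dosing: 20 µM single dose, 1% DMSO | Incubation: Cells overnight before dosing, compound overnight, 37 °C, 5% CO2 | Evaluation: GFP/RFP fluorescence ratio | Control set: DMSO-only wells and HT1080 RFP-L50D-GFP cell wells as references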
CSC inhib: blocks cancer stem cells. cancer stem cell-like cells viability, luminescence. inhibition, % at 7.5 µM. actives 1.1% (n = 300,000). AID 2717;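 active = mean at 75% or more and at least half the replicates too; inconclusive = mean and replicates disagree; tested in HMLE shEcad cells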;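 note: 0% = median of negative and 100% = median of positive control wells; the first replicate is given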
HIV Env fusion: inhibitors of HIV Env-mediated cell fusion; actives 1.1% (n = 360,000); HeLa-JRFL Env/CEM21 cell fusion, luciferase; AID 651610; inhibition, % at 12.3 µM;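 active = mean replicate inhibition score of at least 50 and every replicate individually at or above 50; inconclusive = only one of the two criteria met; inactive = mean below 50 and not all replicates reaching 50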;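 note: 0% = plate neutral controls and 100% = maraviroc near 300 nM; one replicate is shown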
eIF4H inh: inhibitors of RNA binding by human eIF4H; eIF4H fluorescence polarization binding assay; Q15056; inhibition, % at 35 µM; actives 0.94% (n = 290,000); AID 2012;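 active = 50% or more with normal probe brightness, or confirmed in later tests; inconclusive = above 50% with abnormal brightness, or retests that disagree; inactive = below 50% or failed in later tests; about a fifth of its hits are not listed in these tables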;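 note: calls also rest on retests at 20 µM and on dose response follow-up; 0% = protein and probe with vehicle and 100% = probe without protein; strong numbers were not always called active; many hits fall short of the cut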
PABP polyA inh: PABP-poly(A) binding inhibition. P11940. PABP-poly(A) RNA binding, fluorescence polarization. inhibition, % at 35 µM. actives 1% (n = 290,000);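 active = 50% or more with normal probe brightness, or confirmed in later tests; inconclusive = above 50% with abnormal brightness, or retests that disagree; inactive = below 50% or failed in later tests; about a fifth of its hits are not listed in these tables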;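 note: calls also rest on retests at 20 µM and on dose response follow-up; controls were probe without protein and protein plus probe with vehicle; some compounds called inactive have numbers as strong as hits; many hits fall short of the cut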
Target sequence (P11940 whole entry, looked up): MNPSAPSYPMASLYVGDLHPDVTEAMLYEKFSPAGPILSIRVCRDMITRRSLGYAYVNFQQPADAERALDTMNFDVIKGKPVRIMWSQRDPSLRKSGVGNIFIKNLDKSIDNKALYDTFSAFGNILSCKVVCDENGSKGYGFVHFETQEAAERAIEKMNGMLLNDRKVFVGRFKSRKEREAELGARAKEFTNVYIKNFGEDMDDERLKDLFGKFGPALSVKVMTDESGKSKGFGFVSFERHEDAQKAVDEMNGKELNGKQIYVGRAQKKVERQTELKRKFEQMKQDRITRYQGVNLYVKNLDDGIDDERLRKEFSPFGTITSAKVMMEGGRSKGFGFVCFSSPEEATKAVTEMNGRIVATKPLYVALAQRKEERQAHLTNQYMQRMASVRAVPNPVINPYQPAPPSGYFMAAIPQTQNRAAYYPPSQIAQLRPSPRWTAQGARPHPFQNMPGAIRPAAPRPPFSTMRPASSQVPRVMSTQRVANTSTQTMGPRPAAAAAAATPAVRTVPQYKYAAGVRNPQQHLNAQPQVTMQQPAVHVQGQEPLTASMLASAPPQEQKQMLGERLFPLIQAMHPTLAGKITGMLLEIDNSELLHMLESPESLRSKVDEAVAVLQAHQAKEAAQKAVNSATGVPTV
eIF4H inh retest: also measured in eIF4H inh; calls as there; inhibition, %; compound at 20 µM; confirmation average;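 mean of two retest wells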
PABP polyA inh retest: recorded beside PABP polyA inh, whose call it bears; inhibition, %; compound at 20 µM; confirmation repeats;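 mean of two retest wells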
MT1-MMP act inh RFP: second read-out of MT1-MMP act inh, no call of its own (marks repeat the call); RFP signal change, %; measured here: RFP expression control read;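 0 = vehicle wells; hits needed this value within 50% of zero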
The depositor's hits bear a star; & = joins results of further samples.

Results for CCOCCCNC(=S)N1C2CCC1CC(NC(=O)Nc1ccc(C(=O)OCC)cc1)C2 (stereo not given) ?
Rce1 inhib: inactive; MT1-MMP act inh: 4; HIV Env fusion: 10; eIF4H inh: 7; PABP polyA inh: 0; MT1-MMP act inh RFP: -3

Results for CC1CCC(C(C)C)C(OCC(O)CN2CCOCC2)C1 (stereo not given) ?
Yeast UUG start: -10; Rce1 inhib: inactive; MT1-MMP act inh: -5; CSC inhib: -3; eIF4H inh: -14; PABP polyA inh: -2; MT1-MMP act inh RFP: 2

Results for Cc1ccc(NC(=O)C2=C(c3ccccc3)S(=O)(=O)CCS2(=O)=O)cc1 ?
Rce1 inhib: inactive; MT1-MMP act inh: -3; CSC inhib: 79*; HIV Env fusion: -40; eIF4H inh: 1; PABP polyA inh: 4; MT1-MMP act inh RFP: -4

What do the screens show for `Cc1nc(-c2nnc(SCC(=O)Nc3cc(C(F)(F)F)cc(C(F)(F)F)c3)n2C)cs1`?
Rce1 inhib: inactive; MT1-MMP act inh: 0; CSC inhib: -17; HIV Env fusion: -29; eIF4H inh: -6; PABP polyA inh: 8; MT1-MMP act inh RFP: 0

How did O=C(COc1ccc2c(C(F)(F)F)cc(=O)oc2c1)NCc1cccs1 do in these assays?
Yeast UUG start: -11; Rce1 inhib: inactive; MT1-MMP act inh: -4; CSC inhib: 0; eIF4H inh: 8; PABP polyA inh: 8; MT1-MMP act inh RFP: 1

What do the screens show for `Cc1ccc(N2CC(=O)Nc3c(sc4nc(C)cc(C)c34)C2=O)cc1`?
Yeast UUG start: 4; Rce1 inhib: inactive; MT1-MMP act inh: 6; CSC inhib: 1; HIV Env fusion: 7; eIF4H inh: 1; PABP polyA inh: -5; MT1-MMP act inh RFP: -1

Results for O=C(Nc1ccc(F)c(F)c1)c1ccc(F)c(S(=O)(=O)N2CCC3(CC2)OCCO3)c1 ?
Rce1 inhib: inactive; MT1-MMP act inh: 0; CSC inhib: -5; HIV Env fusion: 11; eIF4H inh: 80; PABP polyA inh: 1; eIF4H inh retest: 15; PABP polyA inh retest: 4; MT1-MMP act inh RFP: -24

Results for Cc1n[nH]c(=O)c2c(NC(=O)COC(=O)c3cc(F)cc(F)c3)oc(C)c12 ?
Yeast UUG start: -7; Rce1 inhib: inactive; CSC inhib: -13

Results for O=C(NC(c1ccccc1)c1ccccc1)N1CCN(CCO)CC1 ?
Rce1 inhib: inactive; MT1-MMP act inh: 1; CSC inhib: -8; HIV Env fusion: -3; eIF4H inh: 2; PABP polyA inh: 2; MT1-MMP act inh RFP: 3

Results for CS(=O)(=O)N(CC(=O)Nc1ccccc1C(=O)N1CCOCC1)c1cccc(F)c1 ?
Yeast UUG start: -17; Rce1 inhib: inactive; MT1-MMP act inh: 1; CSC inhib: 7; HIV Env fusion: -2; eIF4H inh: -12; PABP polyA inh: -9; MT1-MMP act inh RFP: 3

How did Cc1c(N2C(=O)CS/C2=N\N=C\c2ccc(Cl)cc2)c(=O)n(-c2ccccc2)n1C do in these assays?
Yeast UUG start: 11; Rce1 inhib: inactive; MT1-MMP act inh: -2; CSC inhib: 1; HIV Env fusion: 2; eIF4H inh: 8; PABP polyA inh: -4; MT1-MMP act inh RFP: 0

Results for Cc1c(NC(=O)C2(C)CCCCC2)c(=O)n(-c2ccccc2)n1C ?
Yeast UUG start: -13; Rce1 inhib: inactive; MT1-MMP act inh: 1; CSC inhib: 0; HIV Env fusion: -5; eIF4H inh: -3; PABP polyA inh: 4; MT1-MMP act inh RFP: -10

How did COc1cc2c(cc1OC)[C@H](Cc1ccc(O)cc1)NCC2 do in these assays?
Yeast UUG start: -2; Rce1 inhib: inactive; MT1-MMP act inh: 2; HIV Env fusion: -7; eIF4H inh: 2; PABP polyA inh: 3; MT1-MMP act inh RFP: 5

How did O=C(CC1C(=O)NCCN1Cc1ccc(Cl)c(F)c1)NCC1CCOCC1 (stereo not given) do in these assays?
Rce1 inhib: inactive; MT1-MMP act inh: 3; CSC inhib: -14; HIV Env fusion: -21; eIF4H inh: 14; PABP polyA inh: 8; MT1-MMP act inh RFP: 6

How did Nc1ccc(S(=O)(=O)N2CCCc3ccccc32)cc1 do in these assays?
Yeast UUG start: -12; Rce1 inhib: inactive; MT1-MMP act inh: 0; CSC inhib: 9; HIV Env fusion: 8; eIF4H inh: 12; PABP polyA inh: 2; MT1-MMP act inh RFP: -1

How did C[C@H](CO)N1C[C@H](C)[C@H](CN(C)C(=O)CC2CC2)Oc2cc(Br)ccc2S1(=O)=O do in these assays?
Yeast UUG start: -8&-7&6; MT1-MMP act inh: 4; HIV Env fusion: -14; MT1-MMP act inh RFP: 4

Results for CCn1c(SCC(=O)O)nc2sc3c(c2c1=O)CCC3 ?
Yeast UUG start: 0; Rce1 inhib: inactive; MT1-MMP act inh: -5; CSC inhib: -6; HIV Env fusion: -17; eIF4H inh: 48; PABP polyA inh: 37; MT1-MMP act inh RFP: 0

What do the screens show for `Cc1cc(NC(=O)CCOc2ccc(F)cc2)no1`?
Yeast UUG start: -23; Rce1 inhib: inactive; MT1-MMP act inh: -1; HIV Env fusion: -5; eIF4H inh: -12; PABP polyA inh: 2; MT1-MMP act inh RFP: 5

Results for COc1ccccc1N1CCN(C(=O)NC23CC4CC(CC(C4)C2)C3)CC1 ?
Rce1 inhib: inactive; MT1-MMP act inh: 4; CSC inhib: -20; HIV Env fusion: -13; eIF4H inh: 7; PABP polyA inh: -2; MT1-MMP act inh RFP: 6

Results for Fc1cccc(NC(=S)NCc2ccccn2)c1 ?
Yeast UUG start: -10; Rce1 inhib: inactive; MT1-MMP act inh: 2; HIV Env fusion: 9; eIF4H inh: -1; PABP polyA inh: -14; MT1-MMP act inh RFP: 2

How did Cc1ccc2nc(NC(=O)C(NS(=O)(=O)c3cccc4nsnc34)C(C)C)sc2c1 (stereo not given) do in these assays?
Yeast UUG start: -27; Rce1 inhib: inactive; MT1-MMP act inh: -4; CSC inhib: 8; HIV Env fusion: -24; eIF4H inh: 3; PABP polyA inh: -6; MT1-MMP act inh RFP: -6

What do the screens show for `COc1ccc(C(=O)Nc2nnc(S(=O)(=O)N(C)Cc3ccccc3)s2)cc1`?
Yeast UUG start: 6; Rce1 inhib: inactive; MT1-MMP act inh: 3; CSC inhib: 11; HIV Env fusion: -8; eIF4H inh: -8; PABP polyA inh: 8; MT1-MMP act inh RFP: -4

Results for COC(=O)CNC(=O)COC(=O)c1ccc(OC)c([N+](=O)[O-])c1 ?
Yeast UUG start: -5; Rce1 inhib: inactive; MT1-MMP act inh: 4; CSC inhib: -11; HIV Env fusion: -2; eIF4H inh: -4; PABP polyA inh: -8; MT1-MMP act inh RFP: 5

What do the screens show for `O=C(OCn1nnc2ccccc2c1=O)c1cccnc1`?
Yeast UUG start: -12; Rce1 inhib: inactive; MT1-MMP act inh: -1; CSC inhib: -10; HIV Env fusion: -35; eIF4H inh: -6; PABP polyA inh: 8; MT1-MMP act inh RFP: -2

How did COC(=O)c1cc(C)cc(=O)o1 do in these assays?
Rce1 inhib: inactive; MT1-MMP act inh: 3; CSC inhib: -11; HIV Env fusion: -14; eIF4H inh: 0; PABP polyA inh: -10; MT1-MMP act inh RFP: -1

What do the screens show for `CCOC(=O)CCc1c(C)nc2c(c(C)nn2C(C)(C)C)c1C`?
Yeast UUG start: 5; Rce1 inhib: inactive; MT1-MMP act inh: -3; CSC inhib: -11; HIV Env fusion: 20; eIF4H inh: -9; PABP polyA inh: 19; MT1-MMP act inh RFP: -3

What do the screens show for `Cn1nnnc1Sc1ccc(C(=O)O)cc1[N+](=O)[O-]`?
Yeast UUG start: 3; Rce1 inhib: inactive; MT1-MMP act inh: -1; CSC inhib: -9; HIV Env fusion: 12; eIF4H inh: -5; PABP polyA inh: 2; MT1-MMP act inh RFP: 8

Results for COc1cccc(-c2cc(C(F)(F)F)nc(-n3cc(C)cn3)n2)c1 ?
Rce1 inhib: inactive; MT1-MMP act inh: -3; CSC inhib: -4; HIV Env fusion: 2; eIF4H inh: -9; PABP polyA inh: -3; MT1-MMP act inh RFP: -3

How did O=C(NN=C1C2CC3CC(C2)CC1C3)c1cccc(S(=O)(=O)N2CCOCC2)c1 do in these assays?
Rce1 inhib: inactive; MT1-MMP act inh: 4; CSC inhib: -7; HIV Env fusion: 28; eIF4H inh: -14; PABP polyA inh: -15; MT1-MMP act inh RFP: 5

How did CCSc1nc(-c2ccccc2)c2cc(Cl)ccc2n1 do in these assays?
Rce1 inhib: inactive; MT1-MMP act inh: -4; CSC inhib: -18; HIV Env fusion: 6; eIF4H inh: -15; PABP polyA inh: 4; MT1-MMP act inh RFP: -2

Results for CCN(CC)c1nc(-c2ccccn2)nc(-c2ccccc2)c1C#N ?
Rce1 inhib: inactive; MT1-MMP act inh: -11; CSC inhib: -15; HIV Env fusion: inconclusive; eIF4H inh: -2; PABP polyA inh: 1; MT1-MMP act inh RFP: -13

What do the screens show for `CCCc1cc(C(=O)NC2CCCC2)no1`?
Yeast UUG start: -7; Rce1 inhib: inactive; MT1-MMP act inh: -2; CSC inhib: -8; HIV Env fusion: -26; eIF4H inh: -7; PABP polyA inh: -6; MT1-MMP act inh RFP: 0

Results for COc1ccccc1N1CCN(C(=O)Cn2cnc3c2c(=O)n(C)c(=O)n3C)CC1 ?
Rce1 inhib: inactive; MT1-MMP act inh: 3; CSC inhib: -6; HIV Env fusion: 13; eIF4H inh: 2; PABP polyA inh: 9; MT1-MMP act inh RFP: 3

Results for COc1cccc(CNC(=O)C(=O)NCC2OCCCN2S(=O)(=O)c2cc(C)ccc2C)c1 (stereo not given) ?
Yeast UUG start: 7; Rce1 inhib: inactive; MT1-MMP act inh: 0; CSC inhib: -5; HIV Env fusion: -7; eIF4H inh: -11; PABP polyA inh: -11; MT1-MMP act inh RFP: -5

Results for Cc1ccc(CC2C(=O)N(c3cc(C)ccc3C)C(=O)C2C)cc1 (stereo not given) ?
Yeast UUG start: -4; Rce1 inhib: inactive; MT1-MMP act inh: 0; HIV Env fusion: 19; eIF4H inh: 11; PABP polyA inh: 7; MT1-MMP act inh RFP: -6

How did Cc1ccc(Cn2c(C(C)Nc3nc(-c4ccc(F)cc4)cs3)nc3cc(C(F)(F)F)ccc32)cc1 (stereo not given) do in these assays?
Yeast UUG start: -13; Rce1 inhib: inactive; MT1-MMP act inh: -3; CSC inhib: 43; HIV Env fusion: 28; MT1-MMP act inh RFP: -8

What do the screens show for `CC(CN1CCOCC1)OC(=O)c1ccc(C(C)(C)C)cc1` (stereo not given)?
Yeast UUG start: -2; Rce1 inhib: inactive; MT1-MMP act inh: 6; CSC inhib: 11; HIV Env fusion: 5; eIF4H inh: 3; PABP polyA inh: 2; MT1-MMP act inh RFP: 0

How did Cc1ccc(S(=O)(=O)n2nc(OC(=O)C3CCCCC3)cc2N)cc1 do in these assays?
Yeast UUG start: -18; Rce1 inhib: inactive; MT1-MMP act inh: 3; CSC inhib: 1; eIF4H inh: 4; PABP polyA inh: 1; MT1-MMP act inh RFP: 5

Results for CCO[C@@H]1OC(C(=O)N2CCCCCCC2)=C[C@H](C2CCCCC2)[C@H]1CCCO ?
Yeast UUG start: -8; Rce1 inhib: inactive; MT1-MMP act inh: 2; CSC inhib: 1; HIV Env fusion: 31; eIF4H inh: -6; PABP polyA inh: -10; MT1-MMP act inh RFP: -1

Screening results as filed in PubChem BioAssay.
